H5N1 CPE: MDCK cell protection from H5N1 avian flu; cytopathic effect, luminescence, 72 h; stronger effect = higher value; no value below 0 was filed and about half of the inactive calls have no number; reference of the scale not given here; inhibition, % at 50 µM; 96,000 compounds, 0.07% hits; in the data active = inhibition above about 25%
* hit, by the source's call; i = inactive.

SMILES	H5N1 CPE
CCc1ccc(N2CC(C(=O)NC3=NCCS3)CC2=O)cc1 (configuration not stated)	i
O=C(O)c1cc(-c2cccnc2)nn1-c1ccccn1	0.5
COC(=O)c1ccc2c(c1)N(Cc1ccccc1F)C(=O)c1ccccc1S2=O (configuration not stated)	2.1
Clc1ccc(OCCSCc2nc3ccccc3[nH]2)cc1	1.2
CCOC(=O)c1sc(NC(=O)CCCCCN2C(=O)c3cccc4cccc(c34)C2=O)nc1C	i
O=c1ccc(Oc2nc(N3CCOCC3)nc(N3CCOCC3)n2)n[nH]1	i
CCOc1ccc2[nH]c(S(=O)(=O)CC)nc2c1Cl	i
CC(=O)c1c(N)[nH]c(-c2ccccc2)nc1=S	i
CCCS(=O)(=O)N1CCCC(C(=O)N2CCOCC2)C1 (configuration not stated)	i
Cn1cnnc1SCC(=O)NCCC(c1ccccc1)c1ccccc1	0.2
O=C1CC(N2CCN(C3CC(=O)N(CCc4ccccc4)C3=O)CC2)C(=O)N1CCc1ccccc1 (configuration not stated)	0.2
CCCNC(=O)CSc1nnc(-c2ccco2)n1C	i
CCOCCCNC(=O)C1CCN(c2cc(C)nc3c(-c4ccc(OC)c(OC)c4)c(C)nn23)CC1	i
Clc1ncnc2c1oc1ccccc12	i
Cn1c(SCC(=O)c2ccc(F)cc2)nnc1-c1ccccc1N	i
O=C(NCc1ccccc1)c1ccc(-c2ccc(F)cc2)o1	0.4
O=c1[nH][nH]c(=O)c2cc(N3CCCC3)ccc12	2.9
O=C(COC(=O)C1(c2ccc(F)cc2)CCCC1)N1CCN(C(=O)c2ccco2)CC1	0.2
COCCNC(=O)CSc1nc2ccccc2c(=O)n1CC1CCCO1 (configuration not stated)	i
CCN1C(=O)CC(N2CCC(Nc3ccc(OC)cc3)CC2)C1=O (configuration not stated)	0.3
Cc1sc(NC(=O)C2CCCCC2)c(C#N)c1-c1ccccc1	0.0
COc1cc(C(=O)Nc2nc3ccc4nc(C)sc4c3s2)cc(OC)c1OC	i
CCN(CC)CCn1c2ccc(F)cc2c2nc(C)sc21	i
COC(=O)c1ccc(NC(=O)CN(c2ccc(C)cc2)S(=O)(=O)c2c(C)n[nH]c2C)cc1	0.2
Cn1c(=O)[nH]c(=O)c2c1nc(N1CCCC1)n2CC(O)COc1ccccc1 (configuration not stated)	1.8

Carrying on:
SMILES	H5N1 CPE
COc1ccc(NC(=O)N2CCn3c2nc2ccccc23)cc1	1.5
C=CCOC(=O)C(C#N)c1nc2ccccc2nc1N1CCC(C(=O)OCC)CC1 (configuration not stated)	1.2
CCOC(=O)c1ccc(NC(=O)Cn2cccc2)cc1	i
Cc1ccc(C(=O)NNC(=O)CSc2nnc(-c3ccncc3)n2-c2ccc(C)cc2)cc1	2.5
CN=C(NC)SC1CC(=O)N(c2ccccc2)C1=O (configuration not stated)	0.3
CCC(C)N(NC(C)=O)c1nc(Cl)nc(NC(C)C)n1 (configuration not stated)	i
Cc1c(C(=O)O)c(=S)sn1CCOc1ccccc1	0.9
CCCCOc1ncnc2c1[nH]c1ccc(F)cc12	0.3
COc1ccc2nc3oc(C(=O)N4CCN(c5ccccc5F)CC4)cc3cc2c1	1.0
Cc1ccc(C(=O)Nc2cc(Cl)ccc2OC(=O)c2ccc(C)cc2)cc1	i
CC1Cc2cc(-c3csc(NC(=O)Cc4ccccc4)n3)ccc2N1S(C)(=O)=O (configuration not stated)	1.9
Cc1nnc(NC(=O)c2ccc3c(c2)C(=O)N(CCC(C)C)C3=O)s1	0.3
Cc1ccc2c3c1C1(C(=O)N3C(C)(C)CC2C)C(C#N)=C(N)Oc2cc(O)ccc21 (configuration not stated)	i
O=C(CSc1n[nH]c(-c2ccccc2O)n1)N1CCCc2ccccc21	1.5
Cc1ccc(Cn2c(N)c(S(=O)(=O)c3cccs3)c3nc4ccccc4nc32)cc1	i
CCOC(=O)C(NCc1ccccn1)(NC(=O)c1cccnc1)C(F)(F)F (configuration not stated)	i
CC1(C)Cc2c(sc3nc4n(c(=N)c23)CCCCC4)CO1	i
Cc1ccc(C2CC(=O)Nc3cc4c(cc32)OCCO4)s1 (configuration not stated)	0.6
O=C(NCc1ccco1)C(c1ccccc1F)N(Cc1cccnc1)C(=O)Cn1nnc2ccccc21 (configuration not stated)	1.2
COc1ccc(NC(=O)c2ccc(Br)o2)c([N+](=O)[O-])c1	i
Nc1nnc(SCC(=O)Nc2ccc(F)c(Cl)c2)n1-c1ccccc1	i
O=C1c2ccccc2C(=O)N1OCc1ccccc1	i
CCOC(=O)N1CCN(C(=O)Cn2nc(C)c3sc4ccccc4c3c2=O)CC1	1.5
COC(=O)[C@H](C)NC(=O)NC1CCCc2ccccc21 (some centres not stated)	0.9
CC1CN(C(=O)c2ccccc2C(=O)c2ncc[nH]2)CC(C)O1 (configuration not stated)	i

The results go on.
SMILES	H5N1 CPE
Nc1nc2n(n1)C(c1ccco1)CC(c1ccc(Cl)cc1)N2 (configuration not stated)	i
O=C(NC1CCCCC1)N1CCN(C2CCCCC2)CC1	1.1
CN(c1ccccc1C(=O)Nc1ccc2c(c1)OCO2)S(C)(=O)=O	0.4
Cn1nc(C(F)(F)F)c(/C=N/OC(=O)c2ccccc2Cl)c1SCc1ccc(Cl)cc1	0.4
Cc1cc(C)n2nc(SCC(=O)N3CCC4(CC3)OCCO4)nc2n1	0.3
Cc1ccc(NC(=O)CN2C(=O)S/C(=C\c3cc(C)n(C)c3C)C2=O)cc1	0.1
CCCOc1ccc(N2C(=O)CC(N3CCN(C(=O)c4ccco4)CC3)C2=O)cc1 (configuration not stated)	i
c1cncc(-c2nc(N3CCCCCC3)c3ccccc3n2)c1	1.4
COc1ccc2oc3ccc(OC)cc3c(=O)c2c1	0.1
CCCCN(CC)CCCNC(=O)c1cc2c(=O)n(C)c3ccccc3c2n1C	3.0
C/C(=N/NC(=O)Cc1cccn1C)c1ccccc1	0.4
Cc1ccc(S(=O)(=O)N2CCN(C(=O)CCC(=O)OCC(=O)Nc3cccc(C#N)c3)CC2)cc1	0.8
CC1Cc2ccccc2N1C(=O)CN1CCc2ccccc2C1 (configuration not stated)	2.3
CC(=O)NS(=O)(=O)c1cccnc1Nc1cccc(Cl)c1	0.1
Cc1ccccc1-n1nc(C)c2cc(C(=O)N3CCOCC3)sc21	0.2
O=C1CCCC2=C1C1(CCCCC1)N=C(Nc1nc3ccccc3s1)N2	i
O=C(Nc1cccc(F)c1)c1ccccc1	1.6
COc1cc(C2c3sc(=O)[nH]c3SC3C4CCC(C4)C23)ccc1O (configuration not stated)	1.7
O=C(NCC(=O)N(Cc1ccco1)C(C(=O)NC1CCCCC1)c1cccnc1)c1ccco1 (configuration not stated)	0.3
CCOCCOC(=O)c1[nH]c2c(c1C)C(=O)CC(c1ccc(N(C)C)cc1)C2 (configuration not stated)	i
COc1ccc(OCC(O)CN2CCCCC2)cc1 (configuration not stated)	0.5
CCC(=O)N1CCN(c2ccc(OC)cc2[N+](=O)[O-])CC1	0.9
O=[N+]([O-])c1ccc(C(=Nc2cccc3ccccc23)N2CCOCC2)cc1	2.6
COCCN(CC(=O)Nc1ccc(F)cc1)S(=O)(=O)c1ccc(S(=O)(=O)N2CCCC2)cc1	0.4
Cc1ccccc1CSCC(=O)c1c(N)n(CC(C)C)c(=O)n(C)c1=O	0.1

Other compounds follow.
SMILES	H5N1 CPE
COc1cccc2c(=O)n(CC(=O)N3CCCCC3)ccc12	0.5
COc1ccc(N=Nc2nc3ccc(Br)cc3n2C)cc1	i
CC(C)OC(=O)c1cccc(C(=O)OCc2ccco2)n1	i
Cn1c(=O)c2c(SCc3ccccn3)nc(CC(C)(C)C)nc2n(C)c1=O	1.7
O=S(=O)(c1ccccc1)N(Cc1ccccc1)c1ccccn1	0.4
O=c1c(C/C=C/c2ccccc2)c(O)nc2n1CCCS2	i
CCOC(=O)COc1cccc2c(=O)n(CC(=O)N3CCN(C(=O)OCC)CC3)ccc12	0.6
CCOc1ccccc1C(=O)NC(C(=O)Nc1ccccc1N1CCOCC1)C(C)C (configuration not stated)	i
COc1cc(/C=C2/CCC/C(=C\c3cc(O)c(OC)c(Cl)c3)C2=O)cc(Cl)c1O	i
O=c1[nH]c(=O)n(CCc2ccc(F)cc2)c(O)c1C=NCCCN1CCOCC1	0.7
CCOC(=O)C(C(=O)OCC)C1N=C(N)N=C2Oc3ccccc3N21 (configuration not stated)	0.3
CCOC(=O)c1c(NC(=O)/C=C/c2ccc3c(c2)OCO3)sc(C)c1C	i
CSc1ncc(Cl)c(C(=O)Nc2ccc(S(=O)(=O)N3CCOCC3)cc2)n1	i
O=C(N/N=C/c1ccc2c(c1)OCO2)c1sc2cccc(Cl)c2c1Cl	0.2
COc1ccc2[nH]c3c(=O)n(CCCCC(=O)N4CCC(C(N)=O)CC4)c(=S)[nH]c3c2c1	i
Cn1cnnc1SCC(=O)N1N=C2/C(=C/c3ccco3)CCCC2C1c1ccco1 (configuration not stated)	1.7
CCOC(=O)c1cnc2c(cnn2C)c1NCCC(O)C(F)(F)F (configuration not stated)	1.0
c1coc(-c2nnc3sc(C4CCCCC4)nn23)c1	11
O=C(CCC(=O)N1CCN(C2CCCC2)CC1)Nc1nnc(C(F)(F)F)s1	0.2
COc1ccc(CCC(=O)N2c3ccccc3CC2C)cc1 (configuration not stated)	1.1
CN1CCN(CC(=O)NC2CCCCC2)CC1	i
CCCCn1c2c(c(=N)c3c1CCC3)CCC2	0.3
COc1cc(S(=O)(=O)N2CCC(O)(c3cccc(C(F)(F)F)c3)CC2)ccc1-n1cnnn1	i
COc1cccc(-c2nn(-c3ccccc3)cc2C(=O)n2nnc3ccccc32)c1	i
Cc1cc(C)c2c(c1)C1C=CCC1C(c1ccc(S(=O)(=O)N3CCOCC3)cc1)N2 (configuration not stated)	i

The listing continues.
SMILES	H5N1 CPE
CCOC(=O)C1CCN(Cc2coc3c(Cl)cc(Cl)cc3c2=O)CC1	i
COc1ccc(N(CC(=O)Nc2ccc(C)cn2)S(=O)(=O)c2c(C)noc2C)cc1	i
COc1ccc(C(C)=O)cc1CSc1nnc(C)s1	i
CCC(=O)NCCCCNC(=O)CC	0.1
C=CCn1c(N2CCCCCC2)nc2c1c(=O)[nH]c(=O)n2C	2.7
Fc1cccc(-c2nn[nH]n2)c1	i
COc1ccc(N=NC2=C(O)CC(C)(C)CC2=O)cc1	i
Cc1cnnc2ccc3c(no[n+]3[O-])c12	0.9
CCCCNC(=O)CSc1nnc(-c2ccco2)n1C	0.5
CCc1nc(SCC(=O)Nc2nccs2)c2oc3ccccc3c2n1	0.5
CC(=O)Nc1ccc(S(=O)(=O)NC2=C(N3CCN(c4ccc(F)cc4)CC3)C(=O)c3ccccc3C2=O)cc1	i
Cc1nn(Cc2ccccc2Cl)c(C)c1NC(=O)C1C2CCC(O2)C1C(=O)O (configuration not stated)	1.4
O=C(c1ccccc1)c1nn(-c2ccc(Cl)cc2)c(=O)cc1C(F)(F)F	i
Cc1ccc(NC(=O)CN2C(=O)NC3(CCc4ccccc43)C2=O)cc1Cl (configuration not stated)	1.4
O=C(NCc1ccc(F)cc1)c1cc(-c2ccco2)on1	0.5
O=C(c1cnccn1)N(Cc1ccco1)C1(C(=O)NC2CCCCC2)CCCCC1	0.3
CC(C)n1c(-c2ccccc2F)n[nH]c1=S	i
Cc1cc2oc(C(=O)NC3CCS(=O)(=O)C3)c(C)c2cc1C (configuration not stated)	i
O=C(c1ccccc1)N1CCCC(C(=O)N2CCc3ccccc3C2)C1 (configuration not stated)	1.6
CCN(CC(=O)NC(c1ccccc1)c1ccccc1)Cc1nc2ccccc2c(=O)[nH]1	1.1
Cc1ccoc1C(=O)Nc1cccc(Oc2ccccc2)c1	i
Cc1cc(O)ccc1Nc1nc2ccccc2nc1Nc1ccc(O)cc1C	0.6
CCn1c(Cc2ccccc2)nnc1SCC(=O)OC(C)C	0.7
CCOC(=O)c1[nH]c2cc(OC)c(OC)cc2c1N	i
Clc1ccc(CN2C3=NCCN3c3ccccc32)cc1	0.9

An excerpt from above in order of length of the SMILES, ascending.
SMILES	H5N1 CPE
CC(C)n1c(-c2ccccc2F)n[nH]c1=S	i
COc1ccc(C(C)=O)cc1CSc1nnc(C)s1	i
C=CCn1c(N2CCCCCC2)nc2c1c(=O)[nH]c(=O)n2C	2.7

Remaining list, next part
SMILES	H5N1 CPE
CC(=O)OCC(OC(C)=O)C(OC(C)=O)C(OC(C)=O)C(=O)Nc1ccc(C)cc1C (configuration not stated)	1.5
O=C(NCc1nc2ccccc2[nH]1)c1cccs1	6.0
Cc1nnc2n1NC(c1ccc(Cl)cc1)C(C(=O)N1CCC(C)CC1)S2 (configuration not stated)	i
COc1cc(OC)c(NC(=O)c2ccc(Br)o2)cc1Cl	i
O=C1c2cccnc2C(=O)N1Cc1ccc(F)cc1	i
COc1cccc(C(C#N)N2N=C(C)CC2(C)C)c1O (configuration not stated)	0.3

Entries shown so far with a Cl atom (19):
SMILES	H5N1 CPE
Clc1ccc(OCCSCc2nc3ccccc3[nH]2)cc1	1.2
CCOc1ccc2[nH]c(S(=O)(=O)CC)nc2c1Cl	i
Clc1ncnc2c1oc1ccccc12	i
CCC(C)N(NC(C)=O)c1nc(Cl)nc(NC(C)C)n1 (configuration not stated)	i
Cc1ccc(C(=O)Nc2cc(Cl)ccc2OC(=O)c2ccc(C)cc2)cc1	i
Nc1nnc(SCC(=O)Nc2ccc(F)c(Cl)c2)n1-c1ccccc1	i
Nc1nc2n(n1)C(c1ccco1)CC(c1ccc(Cl)cc1)N2 (configuration not stated)	i
Cn1nc(C(F)(F)F)c(/C=N/OC(=O)c2ccccc2Cl)c1SCc1ccc(Cl)cc1	0.4
CC(=O)NS(=O)(=O)c1cccnc1Nc1cccc(Cl)c1	0.1
COc1cc(/C=C2/CCC/C(=C\c3cc(O)c(OC)c(Cl)c3)C2=O)cc(Cl)c1O	i
CSc1ncc(Cl)c(C(=O)Nc2ccc(S(=O)(=O)N3CCOCC3)cc2)n1	i
O=C(N/N=C/c1ccc2c(c1)OCO2)c1sc2cccc(Cl)c2c1Cl	0.2
CCOC(=O)C1CCN(Cc2coc3c(Cl)cc(Cl)cc3c2=O)CC1	i
Cc1nn(Cc2ccccc2Cl)c(C)c1NC(=O)C1C2CCC(O2)C1C(=O)O (configuration not stated)	1.4
O=C(c1ccccc1)c1nn(-c2ccc(Cl)cc2)c(=O)cc1C(F)(F)F	i
Cc1ccc(NC(=O)CN2C(=O)NC3(CCc4ccccc43)C2=O)cc1Cl (configuration not stated)	1.4
Clc1ccc(CN2C3=NCCN3c3ccccc32)cc1	0.9
Cc1nnc2n1NC(c1ccc(Cl)cc1)C(C(=O)N1CCC(C)CC1)S2 (configuration not stated)	i
COc1cc(OC)c(NC(=O)c2ccc(Br)o2)cc1Cl	i

Compound activity as filed in PubChem.

This is a subset; the hit share may differ from the screen's.
